Assay outcomes as filed in PubChem BioAssay.
Ecoli rRNA inh = selective bacterial rRNA inhibition in E. coli; E. coli WT GFP vs humanized-ribosome RFP mutants, fluorescence, 24 h; stronger effect = lower value; DMSO median 0, no signal -100; GFP signal change (wild-type ribosome), % (test concentration not listed); 350,000 compounds, 1.6% hits; AID 720706;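 active = significant combined selectivity score with lowered wild-type GFP, culture density cut under 30%, mutant RFP and density less affected; inactive = any of these conditions unmet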; also: one replicate is shown; some compounds called inactive have numbers as strong as hits
MLL AF4-AF9 inh = blocks AF4 peptide binding to human AF9 | P42568 | AlphaScreen, biotin-AF4 peptide binding to FLAG-AF9 | inhibition, % at 10 µM | 350,000 compounds, 0.47% hits | AID 651704;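 active = every replicate reaching a set inhibition limit, whatever the replicate mean, cut at about 25% in these data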;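 also: 0% = plate neutral control median and 100% = total signal loss; the record names both 10 and 1 µM as test concentration; the first replicate is given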
Target sequence (P42568 whole entry, looked up): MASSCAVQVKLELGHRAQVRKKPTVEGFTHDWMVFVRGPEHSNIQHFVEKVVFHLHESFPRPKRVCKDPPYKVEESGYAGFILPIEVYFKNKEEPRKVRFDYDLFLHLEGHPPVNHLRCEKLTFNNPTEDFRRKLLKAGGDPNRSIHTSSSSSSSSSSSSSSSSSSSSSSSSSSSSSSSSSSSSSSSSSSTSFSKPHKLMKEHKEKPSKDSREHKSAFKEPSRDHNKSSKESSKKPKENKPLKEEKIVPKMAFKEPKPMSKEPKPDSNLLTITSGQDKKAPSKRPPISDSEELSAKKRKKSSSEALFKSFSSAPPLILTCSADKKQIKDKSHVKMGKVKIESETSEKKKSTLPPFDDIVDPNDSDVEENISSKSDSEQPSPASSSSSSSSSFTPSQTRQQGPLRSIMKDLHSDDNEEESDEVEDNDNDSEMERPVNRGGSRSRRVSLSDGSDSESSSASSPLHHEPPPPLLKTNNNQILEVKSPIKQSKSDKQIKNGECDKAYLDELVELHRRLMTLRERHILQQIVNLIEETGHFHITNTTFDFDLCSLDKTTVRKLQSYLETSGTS
Ecoli rRNA inh OD600 = second read-out of Ecoli rRNA inh, no call of its own (marks repeat the call); OD600 change, %; measured here: OD600 growth;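 optical density of the mix in the first replicate; 0 = DMSO median and -100 = no signal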
Ecoli rRNA inh RFP = recorded beside Ecoli rRNA inh, whose call it bears; RFP signal change, %; measured here: RFP humanized mutant strains;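 first replicate; 0 = DMSO median and -100 = no signal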
* hit, by the source's call; & = joins results of further samples. An excerpt; the hit share may differ from the screen's.

No.	Structure	Ecoli rRNA inh	Ecoli rRNA inh OD600
1	Cc1noc(C)c1C(=O)N(C)C[C@@H]1OCc2ccccc2-c2ccccc2C(=O)N([C@@H](C)CO)C[C@H]1C	1	3
2	NC(=O)c1cccc(-c2coc3c(C(=O)NCc4cccnc4)cccc23)c1	-10	-14
3	COC(=O)/C=C1\OC(c2ccccc2)c2ccccc21 (configuration not stated)	-16	-34
4	COc1cccc(-c2cnc3c(c2)C(=O)N([C@@H](C)CO)C[C@@H](C)[C@@H](CN(C)C(=O)Nc2ccccc2F)O3)c1	-1	3
5	CC(=O)N[C@H]1CC[C@H](CCNC(=O)Nc2ccc(C(F)(F)F)cc2)O[C@@H]1CO	-61	-75
6	CCS(=O)(=O)N1[C@H](CO)[C@@H](c2ccc(C#CC(C)C)cc2)[C@@H]1C#N	3	-2
7	N#C[C@H]1[C@H](c2ccccc2-c2ccccc2)[C@H](CO)N1C(=O)NC1CCCCC1	-12	-34
8	CC(C)CC#Cc1ccc2c(c1)O[C@H](CN(C)C(=O)C1CCCCC1)[C@@H](C)CN([C@@H](C)CO)S2(=O)=O	-4	-18
9	CC(C)C#Cc1ccc2c(c1)O[C@H](CN(C)C(=O)c1ccccn1)[C@H](C)CN([C@@H](C)CO)S2(=O)=O	-1	1
10	CN1CCN(C(=O)C[C@H]2C=C[C@H](NC(=O)Nc3ccccc3F)[C@@H](CO)O2)CC1	1	3
11	C[C@@H]1CN([C@@H](C)CO)C(=O)Cc2cc(NC(=O)C3CCCCC3)ccc2O[C@H]1CN(C)Cc1ccc(C(=O)Nc2ccccc2N)cc1	-5	-14
12	O=C(Nc1ccc2c(c1)OCO2)N[C@H]1CC[C@@H](CCNC(=O)C2CCC2)O[C@H]1CO	-1	4
13	COc1ccc(S(=O)(=O)Nc2ccc3c(c2)CC(=O)N([C@@H](C)CO)C[C@@H](C)[C@H](CN(C)C(=O)Nc2c(C)noc2C)O3)cc1	2	3
14	Cc1ccc(S(=O)(=O)Nc2ccc3c(c2)C(=O)N([C@@H](C)CO)C[C@@H](C)[C@@H](CN(C)Cc2ccc(Cl)c(Cl)c2)O3)cc1	-3	-15
15	COc1cccc(C(=O)N2C[C@@H]3[C@H](c4ccccc42)[C@H](CO)N3C(C)=O)c1	4	9

No.	Ecoli rRNA inh RFP	MLL AF4-AF9 inh
1	1.6	-1.1
2	-4.4	-0.1
3	-10	2.2
4	-0.7	0.6
5	-22	13
6	1.6	6.4
7	-2.9	-1.9
8	-5.0	3.6
9	1.4	-2.3
10	-3.8	-1.4
11	-1.1	-6.3
12	0.0	-1.3
13	-1.4	-1.3
14	5.8	3.4
15	-3.9	-4.2

New compounds follow:
No.	Structure	Ecoli rRNA inh	Ecoli rRNA inh OD600
16	CO[C@H]1CN(C)C(=O)c2ccc(NC(C)=O)cc2OC[C@@H](C)N(CC2CC2)C[C@@H]1C	1	-3
17	N#Cc1cccc(-c2ccc3c(c2)[C@@H]2[C@@H](CCN2S(=O)(=O)c2cccc(F)c2)[C@H](CO)N3)c1	-19*	-15*
18	O=C(c1ccncc1)N1C[C@H]2[C@@H](c3ccccc31)[C@H](CO)N2Cc1ccc(F)cc1	-1	7
19	O=C(c1ccccn1)N1CC2(C1)[C@H](c1ccccc1)[C@@H](CO)N2C(=O)C1CCCC1	-3	-4
20	CC(C)CC#Cc1ccc([C@H]2[C@H]3CN(C(=O)NC4CCCC4)CC(=O)N3[C@H]2CO)cc1	2	-26
21	O=C(Nc1ccccc1Cl)c1cc(C2CCCCN2C(=O)C2CCCCC2)on1 (configuration not stated)	-15	-14
22	C[C@H](CO)N1C[C@H](C)[C@@H](CN(C)C(=O)Cc2ccccc2)OCc2cn(nn2)CCCC1=O	1&25	1&15
23	CC(=O)c1cccc(-c2ccnc3c2CC(C(=O)Nc2cccc(N(C)C)c2)O3)c1 (configuration not stated)	-18	-29
24	CC1=C(C(=O)N(C(C)C)C(C)C)CC(CC(=O)NC2CC2)C(=O)N1CCC1=CCCCC1 (configuration not stated)	3	6
25	C[C@H](CO)N1C[C@H](C)[C@H](CN(C)S(=O)(=O)c2ccccc2)Oc2c(cccc2N(C)C)C1=O	2	-2
26	CCc1cccc(NC(=O)COC(=O)c2c(C)nn(-c3ccccc3)c2C)c1	-2	-19
27	COCC(=O)Nc1ccc2c(c1)[C@@H]1C[C@H](CC(=O)N3CCOCC3)O[C@H](CO)[C@@H]1O2	3	6
28	CCCC(=O)N1CCC1(C)C(=O)Nc1cc(OC)c(OC)c(OC)c1 (configuration not stated)	0	5
29	C[C@@H]1CCCCO[C@@H](CN(C)CC2CC2)[C@H](C)CN([C@@H](C)CO)C(=O)c2cc(NC(=O)Nc3ccc(F)cc3)ccc2O1	0	6
30	CCOc1ccc(NC(=O)CN(C)C(=O)c2cccnc2Sc2ccc(C)cc2C)cc1OCC	2	-7

No.	Ecoli rRNA inh RFP	MLL AF4-AF9 inh
16	2.2	-1.3
17	4.2*	-2.7
18	-1.1	1.0
19	-2.1	-1.5
20	-2.8	2.5
21	6.9	-0.8
22	-1.3&1.5	-0.9&-2.4
23	-3.9	7.8
24	-0.2	-1.6
25	-1.3	-2.0
26	1.6	1.9
27	-0.9	-1.9
28	-7.9	-6.0
29	-0.9	0.6
30	11	-1.7

Carrying on.
No.	Structure	Ecoli rRNA inh	Ecoli rRNA inh OD600
31	CCCN1C[C@H](C)[C@@H](OC)CN(C)C(=O)c2ccc(NC(=O)COC)cc2OC[C@@H]1C	0	-2
32	COCCNC(=O)c1cc2c(c(-c3cccc(C4=CCCC4)c3)n1)[C@H](CCO)N([S@@](=O)C(C)(C)C)C2	4	0
33	C[C@H]1CN([C@@H](C)CO)C(=O)c2cccc(NC(=O)Nc3ccc(F)cc3)c2O[C@H]1CN(C)C(=O)Nc1ccc(C(F)(F)F)cc1	-6	2
34	C[C@H](CO)N1C[C@H](C)[C@@H](CN(C)C(=O)CN(C)C)Oc2cc(C#CC3CC3)ccc2S1(=O)=O	13	10
35	CC1(C(=O)NS(=O)(=O)c2ccc(F)cc2F)CCN1C(=O)Cc1ccccc1 (configuration not stated)	5	4
36	C[C@@H]1CCCCO[C@@H](CN(C)S(=O)(=O)c2ccc(F)cc2)[C@@H](C)CN([C@H](C)CO)C(=O)c2cc(NS(=O)(=O)c3ccc(Cl)cc3)ccc2O1	1	2
37	COc1ccc(CNC(=O)C[C@@H]2CC[C@@H]3[C@@H](COc4ccc(NC(=O)C5CC5)cc4C(=O)N3C)O2)cc1	0	-6
38	COCC#Cc1cnc2c(c1)C(=O)N([C@@H](C)CO)C[C@@H](C)[C@@H](CN(C)C(=O)c1cccnc1)O2	5	9
39	N#C[C@@H]1N[C@H](CO)[C@@H]1c1ccc(-c2ccccc2F)cc1	2	5
40	CCC(=O)NC[C@H]1[C@H](c2ccccc2)[C@H](CO)N1C(=O)C1CCC1	7	12
41	CC(C)c1ccc(NC(=O)C2Cc3c(-c4ccccc4Oc4ccccc4)ccnc3O2)cc1 (configuration not stated)	3	24
42	CO[C@H](CN(C)S(=O)(=O)c1ccc(Cl)cc1)[C@@H](C)CN(Cc1ccccc1Cl)[C@@H](C)CO	-2	-31
43	COc1cc(F)ccc1Oc1cccc2c1S(=O)(=O)N(C1CC1)C[C@@H](COCc1ccccc1)O2	0	7
44	CC=Cc1ccc2n(c1=O)C[C@H]1[C@H](CO)[C@@H](C(=O)N(C)C)N(Cc3cccc(F)c3)[C@@H]21 (mixture of isomers)	-1	-6
45	C[C@H](CO)N1C[C@H](C)[C@H](CN(C)Cc2ccc3c(c2)OCCN3C)OCc2cn(nn2)CCCC1=O	3	0

No.	Ecoli rRNA inh RFP	MLL AF4-AF9 inh
31	-0.3	-8.8
32	4.5	-4.9
33	-2.0	-10
34	-1.7	0.3
35	-0.9	-5.0
36	-2.8	0.5
37	-0.6	-2.1
38	-3.3	-0.6
39	0.3	-1.4
40	-0.5	-0.8
41	8.0	-0.8
42	5.1	-20
43	-3.3	-0.3
44	-0.1	-1.4
45	-1.8	-1.6

(next part)
No.	Structure	Ecoli rRNA inh	Ecoli rRNA inh OD600
46	CCC(=O)Nc1ccc2c(c1)OC[C@@H](C)N(Cc1cccc(F)c1)C[C@H](C)[C@@H](OC)CN(C)C2=O	-5	-7
47	Cc1ccc(S(=O)(=O)Nc2ccc3c(c2)C(=O)N([C@H](C)CO)C[C@@H](C)[C@H](CN(C)Cc2ccc(Cl)c(Cl)c2)OCCCC[C@H](C)O3)cc1	2	-15
48	COCC(=O)N(C)C[C@H]1Oc2ncc(-c3ccc(C)cc3)cc2C(=O)N([C@H](C)CO)C[C@@H]1C	2	10
49	Cc1ccccc1S(=O)(=O)N1C[C@H](O)COC[C@@H]2O[C@@H](CC(=O)N3CCOCC3)CC[C@H]21	4	20
50	CCN(Cc1cc(OC)c(OC)c(OC)c1)S(=O)(=O)c1ccccc1Br	-32	-45
51	COc1ccc2c3c([nH]c2c1)[C@H](CO)N(Cc1ccncc1)CC31CN(S(C)(=O)=O)C1	4	7
52	COc1ccc(NC(=O)N(C)C[C@H]2OCCCC[C@H](C)Oc3ccc(NS(=O)(=O)c4cccs4)cc3C(=O)N([C@@H](C)CO)C[C@@H]2C)cc1	-3	-8
53	C[C@@H]1CCCCO[C@@H](CN(C)S(=O)(=O)c2ccc(Cl)cc2)[C@H](C)CN([C@H](C)CO)C(=O)c2cc(NC(=O)Nc3ccc4c(c3)OCO4)ccc2O1	-1	9
54	Cc1noc(C)c1S(=O)(=O)Nc1ccc2c(c1)C(=O)N([C@H](C)CO)C[C@@H](C)[C@H](CN(C)S(=O)(=O)c1cn(C)cn1)O2	-5	-19
55	COc1ccc2c3c(n(C)c2c1)[C@@H](CO)N(C(C)=O)CC31CCN(Cc2nccs2)CC1	-6	-1
56	O=C1Nc2ccccc2N=C(c2ccc3c(c2)OCO3)C1N(C(=O)c1ccnc2ccccc12)c1ccccc1 (configuration not stated)	-11	-8
57	C[C@H]1CN([C@@H](C)CO)C(=O)c2cc(-c3ccncc3)cnc2O[C@H]1CN(C)C(=O)Nc1ccc2c(c1)OCO2	3	3
58	C[C@@H]1CCCCO[C@H](CN(C)C(=O)CCC(F)(F)F)[C@@H](C)CN([C@H](C)CO)C(=O)c2cc(NS(C)(=O)=O)ccc2O1	3	4
59	CC1(C(=O)NS(=O)(=O)c2ccccc2Cl)CCN1C(=O)Cc1cc(F)ccc1F (configuration not stated)	4	15
60	CCc1cnc(N2[C@H](C#N)[C@H](c3ccc(-c4cccc(F)c4)cc3)[C@H]2CO)s1	-2	0

No.	Ecoli rRNA inh RFP	MLL AF4-AF9 inh
46	3.9	3.4
47	5.4	6.1
48	-0.7	-0.6
49	1.2	-0.6
50	-6.8	5.6
51	-0.7	1.3
52	0.2	-6.6
53	-1.1	1.5
54	-1.4	-2.0
55	-2.0	3.5
56	7.0	4.5
57	0.1	-2.8
58	-1.3	-1.8
59	-3.1	-8.1
60	-2.0	-5.9

Further compounds
No.	Structure	Ecoli rRNA inh	Ecoli rRNA inh OD600
61	CO[C@H]1CN(C)C(=O)c2ccc(NS(=O)(=O)c3cccc(F)c3)cc2OC[C@@H](C)N(Cc2cc(F)ccc2F)C[C@@H]1C	-2	-3
62	CCNC(=O)C1(C)CCN(Cc2csc(-c3ccccc3)n2)C1 (configuration not stated)	6	11
63	CCCC#Cc1cnc2c(c1)C(=O)N([C@H](C)CO)C[C@H](C)[C@H](CN(C)C(=O)c1cccc(F)c1)O2	9	14
64	C[C@@H]1CN([C@@H](C)CO)C(=O)c2cc(NC(=O)c3ccccc3)ccc2O[C@@H](C)CCCCO[C@H]1CN(C)Cc1ccc(C(F)(F)F)cc1	0	-2
65	Cc1cc(C)c(NC(=O)CN(C)C(=O)CCN2C(=O)C3CCCCC3C2=O)c(C)c1 (configuration not stated)	8	8

No.	Ecoli rRNA inh RFP	MLL AF4-AF9 inh
61	1.7	-0.6
62	-0.8	-0.2
63	4.3	4.7
64	2.1	-1.4
65	2.5	-1.9

3 entries from above, with two lines to a compound:
Results follow in this order: Ecoli rRNA inh	Ecoli rRNA inh OD600	Ecoli rRNA inh RFP	MLL AF4-AF9 inh
65) Cc1cc(C)c(NC(=O)CN(C)C(=O)CCN2C(=O)C3CCCCC3C2=O)c(C)c1 (configuration not stated)
 : 8	8	2.5	-1.9
62) CCNC(=O)C1(C)CCN(Cc2csc(-c3ccccc3)n2)C1 (configuration not stated)
 : 6	11	-0.8	-0.2
61) CO[C@H]1CN(C)C(=O)c2ccc(NS(=O)(=O)c3cccc(F)c3)cc2OC[C@@H](C)N(Cc2cc(F)ccc2F)C[C@@H]1C
 : -2	-3	1.7	-0.6
